eIF4H inh: inhibitors of RNA binding by human eIF4H; inhibition, % at 35 µM; AID 2012; Q15056; 0.94% of 290,000 active; eIF4H fluorescence polarization binding assay;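 active = 50% or more with normal probe brightness, or confirmed in later tests; about a fifth of its hits are not listed in these tables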;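 also: calls also rest on retests at 20 µM and on dose response follow-up; 0% = protein and probe with vehicle and 100% = probe without protein; strong numbers were not always called active; many hits fall short of the cut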
Env fusion inh: blocks HIV Env-driven cell-cell fusion; HeLa-JRFL Env/CEM21 cell fusion, luciferase; inhibition, % at 12.3 µM; 1.1% of 360,000 active; AID 651610;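 active = mean replicate inhibition score of at least 50 and every replicate individually at or above 50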;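 also: 0% = plate neutral controls and 100% = maraviroc near 300 nM; one replicate is shown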
PABP FP inh: blocks human PABP binding to poly(A) RNA | 1% of 290,000 active | inhibition, % at 35 µM | fluorescence polarization | AID 2014 | P11940;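 active = 50% or more with normal probe brightness, or confirmed in later tests; about a fifth of its hits are not listed in these tables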;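 also: calls also rest on retests at 20 µM and on dose response follow-up; controls were probe without protein and protein plus probe with vehicle; some compounds called inactive have numbers as strong as hits; many hits fall short of the cut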
Target sequence (P11940 whole entry, looked up): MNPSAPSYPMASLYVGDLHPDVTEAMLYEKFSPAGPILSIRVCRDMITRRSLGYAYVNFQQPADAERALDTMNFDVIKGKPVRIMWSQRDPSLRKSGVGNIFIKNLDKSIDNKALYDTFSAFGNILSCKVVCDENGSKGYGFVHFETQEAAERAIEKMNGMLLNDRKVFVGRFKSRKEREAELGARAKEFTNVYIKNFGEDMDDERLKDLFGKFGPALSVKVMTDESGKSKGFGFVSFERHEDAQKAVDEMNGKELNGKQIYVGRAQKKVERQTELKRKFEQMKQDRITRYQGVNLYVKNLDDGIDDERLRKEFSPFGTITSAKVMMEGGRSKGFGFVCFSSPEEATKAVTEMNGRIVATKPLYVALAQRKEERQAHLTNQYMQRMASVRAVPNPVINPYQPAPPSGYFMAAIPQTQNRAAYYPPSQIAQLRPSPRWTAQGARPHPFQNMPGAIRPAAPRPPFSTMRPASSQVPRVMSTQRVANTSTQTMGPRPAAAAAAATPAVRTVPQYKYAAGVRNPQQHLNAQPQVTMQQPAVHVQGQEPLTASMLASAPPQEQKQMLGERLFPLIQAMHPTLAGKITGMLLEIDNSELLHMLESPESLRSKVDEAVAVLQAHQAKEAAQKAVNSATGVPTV
CSC inhib: blocks cancer stem cells. inhibition, % at 7.5 µM. cancer stem cell-like cells viability, luminescence. 1.1% of 300,000 active;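 active = mean at 75% or more and at least half the replicates too; tested in HMLE shEcad cells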;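 also: 0% = median of negative and 100% = median of positive control wells; the first replicate is given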
MT1-MMP act inh: inhibitors of human MT1-MMP activation; GFP/RFP ratio change, % at 20 µM; HT1080 RFP-PRO-GFP cells, GFP/RFP ratio fluorescence, overnight; percent of plate control window, DMSO zero; 0.061% of 360,000 active; P50281; AID 651647;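 active = GFP/RFP ratio change of at least 30% with cell ATP level not reduced by more than half and red fluorescence within 50% of control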; also: strong numbers were not always called active
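Assay system: HT1080 RFP-PRO-GFP cells. Benchmarks: DMSO vehicle wells and RFP-L50D-GFP reporter cell wells. Times: overnight cell settling, then overnight compound exposure, 37 °C, 5% CO2. Compound: 20 µM single dose, 1% DMSO. Read-out basis: GFP/RFP fluorescence ratio.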
Rce1 inhib: blocks yeast Ras-converting enzyme | 0.27% of 290,000 active | yeast membranes, quenched prenylated peptide cleavage fluorescence | Q03530 | calls only;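 active = fall in fluorescence gain of 50% or more versus controls, with final raw signal at or below 3038400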;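 also: plate controls were neutral control wells for no effect and wells lacking membranes for full effect; tested at 10 µM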
Yeast UUG start: yeast start codon fidelity modulation. S. cerevisiae UUG-firefly luciferase reporter, luminescence/redox ratio. 0.13% of 350,000 active. activity score, % at 18.7 µM;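 active = replicate mean at a twofold rise or more, about +100% in these data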;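 also: firefly luciferase made from a UUG start codon reports start codon fidelity; reporter light over untreated wells divided by growth signal over untreated wells; some hits fall short of that in this replicate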
MT1-MMP act inh RFP: also measured in MT1-MMP act inh; calls as there; RFP signal change, %; measured here: RFP expression control read;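 0 = vehicle wells; hits needed this value within 50% of zero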
Numbers without * were called inactive; i = inactive; · = no result given.

Each structure is followed by: eIF4H inh | Env fusion inh | PABP FP inh | CSC inhib | MT1-MMP act inh | MT1-MMP act inh RFP | Rce1 inhib | Yeast UUG start
Cc1ccc(-c2csc(NC(=O)c3cnccn3)n2)cc1C
→ 5.7 | -12.4 | 1.1 | -1.4 | -2.6 | -1.5 | i | ·
CC[C@@]12C(=O)N(c3ccc(OC)cc3)C(=O)N1[C@H](c1cccc(C)c1)[C@@H]1C(=O)N(Cc3ccccc3)C(=O)[C@@H]12
→ -5.4 | · | -11.3 | -25.6 | -1.8 | -1.2 | i | -0.2
CCN1CCN(CC(=O)N2c3ccccc3CC2C)CC1 (stereo not given)
→ 8.1 | · | -0.1 | -7.8 | 1.7 | 0.7 | i | -13.6
CCn1c(SCc2ccc(C(=O)OC)o2)nnc1-c1c[nH]c2ccccc12
→ -5.2 | -60.1 | -6.4 | 11.4 | -4.9 | -4.3 | i | -14.8
COC(=O)c1ccccc1OC(=O)c1cc[n+]([O-])cc1
→ -11.3 | 0.5 | -6.2 | -11.0 | 1.1 | 7.4 | i | ·
Cc1ccc2c(c1)N(CC(=O)Nc1c(C)cccc1C)C(=O)c1cccnc1O2
→ 2.0 | 3.7 | 2.3 | -16.0 | -2.2 | 2.3 | i | -15.6
Cc1ccccc1OCC(=O)Nc1ccc2c(c1)ncn2C
→ · | -16.8 | · | -7.5 | 5.1 | 2.6 | i | -26.0
CCC(Sc1ncccn1)C(=O)Nc1cc(C)on1 (stereo not given)
→ -7.3 | -5.7 | -3.7 | -5.8 | 1.3 | 3.8 | i | -2.2
CCOC(=O)c1c(C)[nH]c(C(=O)NCc2ccccn2)c1C
→ · | 25.5 | · | 6.5 | 0.7 | -0.9 | i | -14.5
COc1ccccc1/C=C/c1nc(S(=O)(=O)c2ccccc2)c(N(C)C)o1
→ -16.6 | 17.5 | 3.9 | 12.3 | -1.2 | -4.3 | i | -16.1
Nc1cc(=O)c2[nH]cnc2[nH]1
→ · | -5.0 | · | · | -3.1 | 3.7 | · | -17.6
Cc1c(C)n(CCCN(C)C)c2ncnc(Nc3ccc(F)cc3)c12
→ -11.1 | -14.3 | 19.7 | -13.6 | -1.0 | 0.3 | i | -5.3
c1ccc(-n2ncc3c(N4CCCCC4)ncnc32)cc1
→ 2.9 | 0.6 | 45.3 | 2.7 | 0.2 | 0.3 | i | -76.9
CCOC(=O)C1=C[C@]2(CC)CCCN3CCc4c(n1c1ccccc41)[C@@H]32
→ 1.5 | · | 4.9 | -14.6 | -1.3 | -2.1 | i | -17.7
C/C(=N\NC(=O)C1COc2ccccc2O1)c1cc2ccccc2o1 (stereo not given)
→ -29.3 | -12.6 | 0.1 | 11.5 | 2.4 | 3.7 | i | 39.6
COc1cc(Cl)c(C)cc1NC(=O)COC(=O)c1ccc(CN2CCCC2=O)cc1
→ · | 0.2 | · | -9.5 | 3.6 | 0.5 | · | -17.8
O=C(N1CCCCC1)N1CCN(S(=O)(=O)c2cccc([N+](=O)[O-])c2)CC1
→ -10.1 | 7.7 | 5.1 | -12.1 | -0.1 | 0.9 | i | -3.9
CCn1c2ccccc2c2nnc(SCC(=O)Nc3ncccn3)nc21
→ 9.0 | -44.8 | 2.9 | -9.4 | 2.3 | 2.1 | i | -2.9
CCOC(=O)C1C(=O)CC(C)(O)C(C(=O)OCC)C1c1ccc(OC)cc1 (stereo not given)
→ -5.6 | -53.6 | -5.8 | -4.9 | -1.3 | 4.3 | i | -13.7
O=C(Cn1ncc2c(=O)oc3ccccc3c21)Nc1nc2ccccc2s1
→ 1.4 | · | 3.6 | · | · | · | i | ·
COc1ccc(CCNc2cc(N3CCN(C(=O)c4ccc(C)cc4)CC3)ccc2[N+](=O)[O-])cc1OC
→ -6.2 | · | 3.8 | 16.7 | · | · | i | ·
Cc1c(Cl)cccc1NC(=O)CSc1ccc(-c2cccnc2)nn1
→ 6.6 | 12.7 | -0.7 | -1.8 | 4.2 | -1.5 | i | -17.7
Nc1c(C(=O)N2CCOCC2)sc2nc3c(cc12)CCCC3
→ -2.3 | 19.5 | -3.2 | 11.8 | -0.7 | 4.3 | i | -78.4
O=C(CSC1=NS(=O)(=O)c2cc(F)ccc2N1)NCc1ccc(F)cc1
→ · | -9.8 | · | -12.4 | -1.7 | -0.1 | i | ·
CCc1ccc(Cn2nnc(C(=O)NCc3ccccc3OC)c2N)cc1
→ 6.1 | 2.1 | -2.3 | 12.9 | 3.0 | -0.1 | i | -14.9
Cc1ccc(-n2ncc3c(=O)[nH]c(SCC(=O)N4CCCc5ccccc54)nc32)cc1
→ 0.4 | · | 4.9 | 17.2 | -8.1 | -17.4 | i | -0.2
CSc1ccc(/C=C(/NC(=O)c2ccco2)C(=O)N2CCOCC2)cc1
→ -4.0 | -1.6 | -3.1 | -8.2 | -0.7 | 1.1 | i | -3.5
O=C1NC(c2ccccc2)=C(c2ccc3ccccc3n2)C(c2ccc(F)cc2)N1 (stereo not given)
→ -12.9 | 16.8 | -20.2 | · | 0.0 | 0.8 | · | ·
CCCCSc1nnc(-c2ccc(NC(C)=O)cc2)n1C
→ -5.0 | -44.9 | 3.4 | -5.6 | 1.3 | 0.9 | i | ·
CCCc1c(C(=O)NNc2cc(C(F)(F)F)ccc2Cl)cnn1-c1ccccc1
→ 1.2 | -5.8 | 7.1 | 7.5 | 1.0 | -5.8 | i | ·

Single records, from the list above.
Profile of `Cc1c(Cl)cccc1NC(=O)CSc1ccc(-c2cccnc2)nn1` → eIF4H inh = 6.6; Env fusion inh = 12.7; PABP FP inh = -0.7; CSC inhib = -1.8; MT1-MMP act inh = 4.2; MT1-MMP act inh RFP = -1.5; Rce1 inhib = i; Yeast UUG start = -17.7
Profile of `Cc1ccccc1OCC(=O)Nc1ccc2c(c1)ncn2C` → eIF4H inh = ·; Env fusion inh = -16.8; PABP FP inh = ·; CSC inhib = -7.5; MT1-MMP act inh = 5.1; MT1-MMP act inh RFP = 2.6; Rce1 inhib = i; Yeast UUG start = -26.0

(next part)
Each structure is followed by: eIF4H inh | Env fusion inh | PABP FP inh | CSC inhib | MT1-MMP act inh | MT1-MMP act inh RFP | Rce1 inhib | Yeast UUG start
COCCCn1c(-c2ccsc2)nc2c1c(=O)[nH]c(=O)n2Cc1ccccc1
→ -3.0 | -13.2 | -0.1 | -8.8 | 0.4 | -4.7 | i | ·
COc1ccc(/C=N/NC(=O)CN(Cc2ccccc2)S(=O)(=O)c2ccc3c(c2)OCCO3)cc1
→ -3.9 | · | -12.2 | 5.2 | 7.0 | -10.5 | i | ·
OCCN(C=NC1=NN(c2cccc(C(F)(F)F)c2)CC1)CCO
→ 4.7 | 15.0 | 2.3 | -2.9 | -5.6 | -3.4 | i | -22.6
COCCNc1ccc(N2C(=O)CCCC2=O)cc1[N+](=O)[O-]
→ 0.6 | -41.8 | -7.9 | -8.3 | 4.0 | 0.0 | i | ·
CCOC(=O)CN1C(=O)S/C(=C/c2ccc(O)c([N+](=O)[O-])c2)C1=O
→ 13.1 | 29.0 | -0.9 | -1.6 | 9.3 | -10.3 | i | ·
COc1cccc(NC(=O)CN(C)S(=O)(=O)c2ccc3c(c2)NC(=O)CS3)c1
→ -14.8 | 15.0 | 11.1 | 0.3 | -11.1 | -4.2 | i | -0.3
COc1ccc(-c2nnc(OCc3nc4ccccc4n3C)c3ccccc23)cc1
→ 1.1 | 0.5 | -3.2 | -25.6 | -0.7 | 0.0 | i | -7.5
CCCNC(=O)NC(=O)COC(=O)CNS(=O)(=O)/C=C/c1ccccc1
→ -4.9 | -25.2 | -1.9 | -2.4 | 3.9 | 8.3 | i | ·
Cc1cccc(CCNC(=O)CN(C)S(=O)(=O)c2ccc3c(c2)c(=O)n(C)c(=O)n3C)c1
→ -4.7 | 17.4 | -1.3 | 0.6 | -3.0 | -1.9 | i | -28.1
Nc1ncnc2nc(SCC(=O)Nc3cccc(C(F)(F)F)c3)[nH]c12
→ -1.8 | -2.7 | 9.8 | -13.7 | 3.1 | 1.7 | i | -16.6
Fc1cccc(Cl)c1CNCc1ccccc1Cl
→ -5.1 | · | -2.7 | -4.2 | 0.4 | 2.7 | i | ·
O=C(CCCn1cnc([N+](=O)[O-])n1)Nc1ccc(Cl)c(Cl)c1
→ -5.2 | 19.7 | -7.5 | 2.2 | 4.7 | -4.5 | i | -12.3
CC(=O)C1=C(O)C(=O)N(c2cccnc2)C1c1ccc(Cl)cc1 (stereo not given)
→ 1.8 | -88.8 | -3.6 | -18.6 | -2.3 | 3.7 | i | ·
Cc1cc(NC(=O)CSc2nc3cc(Cl)ccc3c(=O)n2CC(C)C)no1
→ -1.1 | · | 11.7 | 2.0 | · | · | i | ·
CCOC(=O)N1CCN(c2c(N3CCN(c4cccc(C(F)(F)F)c4)CC3)c(=O)c2=O)CC1
→ -0.1 | · | -0.4 | -12.8 | -3.2 | 0.3 | i | ·
Cc1cc(=O)oc2cc(OCC(=O)N3CCC(C(N)=O)CC3)ccc12
→ -1.4 | · | -6.2 | -0.1 | 2.0 | 3.4 | i | -15.5
CCCn1nc(C(=O)NNC(=O)CSC(C)C(=O)Nc2cc(C)on2)c2ccccc2c1=O (stereo not given)
→ -3.5 | -37.3 | 4.8 | -12.0 | 3.3 | 6.3 | i | -14.0
Cc1ccc2c(COC(=O)c3c(C)noc3C)cc(=O)oc2c1
→ -9.4 | -2.8 | -11.0 | 18.7 | 1.6 | -0.6 | i | -2.5
CCCCCN(C(=O)CCC(=O)OC(C)C(=O)NC1CCCCC1)c1c(N)n(CCCC)c(=O)[nH]c1=O (stereo not given)
→ · | · | · | -17.3 | -7.2 | 0.4 | i | -15.5
NC(Cc1ccc(Cl)cc1)c1csc(Nc2cc(NCCCO)ncn2)n1 (stereo not given)
→ · | -13.0 | · | · | -7.8 | -5.0 | · | -21.5
CCS(=O)(=O)N1CCC(C(=O)NCc2cc(OC)ccc2OC)CC1
→ -6.2 | · | 9.0 | 4.4 | 0.9 | -0.9 | i | -4.4
COC(=O)c1cc(-c2ccc(Br)cc2)on1
→ 2.0 | -76.2 | -7.2 | -6.4 | 1.6 | 1.1 | i | -11.9
COc1ccccc1NC(=O)Nc1nnc(CC(=O)Nc2ccccc2C)s1
→ -1.1 | 6.6 | 23.7 | -3.6 | 3.4 | -4.7 | i | ·
Cc1ccc2cc(NC(=O)c3cccc(F)c3)ccc2n1
→ -4.6 | -166.7 | 2.5 | -0.5 | 3.1 | 1.7 | i | ·
CCN(CC)C(=O)CSc1nnc(SCc2ccc(Cl)cc2)s1
→ -16.0 | -15.1 | -5.1 | -11.3 | 3.5 | -0.6 | i | 34.9
O=C(CCC(=O)c1cccs1)OCC(=O)N1CCN(C(=O)c2ccco2)CC1
→ -11.4 | · | -0.1 | 0.4 | 7.2 | -2.2 | i | 7.9
CCC(CC)C(=O)Nc1cccc(-c2ccc3nncn3n2)c1
→ 4.6 | 3.1 | 8.3 | -7.8 | 0.7 | 2.2 | i | -15.5
COC(=O)C1CCN(C(=O)Cc2c(OC)ccc3cc(Br)ccc23)CC1
→ 1.2 | 9.4 | -1.3 | -15.5 | 3.9 | -5.2 | i | -7.2
CCOc1cc(/C=C2\NC(=O)NC2=O)ccc1OC(C)C(=O)O (stereo not given)
→ 2.6 | 4.7 | 11.7 | -3.6 | 1.8 | -0.5 | i | -21.8
CC(C)CNS(=O)(=O)c1ccc(S(=O)(=O)N2CCN(CCC#N)CC2)cc1
→ -9.6 | -20.8 | -5.5 | 11.4 | 2.2 | 3.4 | i | -10.7
N#CC1=C(N)Oc2n[nH]c(-c3cccnc3)c2C1c1ccc([N+](=O)[O-])o1 (stereo not given)
→ 7.6 | -6.8 | -1.5 | -0.4 | 7.3 | 13.8 | i | -15.3

Arranged by the number under MT1-MMP act inh (rising): three from the list above
SMILES,Env fusion inh,MT1-MMP act inh,MT1-MMP act inh RFP,Rce1 inhib,Yeast UUG start
NC(Cc1ccc(Cl)cc1)c1csc(Nc2cc(NCCCO)ncn2)n1 (stereo not given),-13.0,-7.8,-5.0,·,-21.5
CCOC(=O)C1=C[C@]2(CC)CCCN3CCc4c(n1c1ccccc41)[C@@H]32,·,-1.3,-2.1,i,-17.7
CC(C)CNS(=O)(=O)c1ccc(S(=O)(=O)N2CCN(CCC#N)CC2)cc1,-20.8,2.2,3.4,i,-10.7

These rows are one share of the data, so the mix of outcomes need not match the whole.
